Screening results from PubChem.
D2 PAM = potentiates the human D2 dopamine receptor allosterically. DiscoveRx D2 beta-arrestin cells, luminescence, 90 min; 100% = 57 uM dopamine signal. potentiation, % (no concentration beside the values). actives 0.23% (n = 360,000); active = potentiation of 50% or more; inconclusive = 30% to 50%; inactive = 30% or less;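 also: compound concentration not given in the record; tested on top of an EC20 dose of dopamine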
Target sequence (P14416 whole entry, looked up): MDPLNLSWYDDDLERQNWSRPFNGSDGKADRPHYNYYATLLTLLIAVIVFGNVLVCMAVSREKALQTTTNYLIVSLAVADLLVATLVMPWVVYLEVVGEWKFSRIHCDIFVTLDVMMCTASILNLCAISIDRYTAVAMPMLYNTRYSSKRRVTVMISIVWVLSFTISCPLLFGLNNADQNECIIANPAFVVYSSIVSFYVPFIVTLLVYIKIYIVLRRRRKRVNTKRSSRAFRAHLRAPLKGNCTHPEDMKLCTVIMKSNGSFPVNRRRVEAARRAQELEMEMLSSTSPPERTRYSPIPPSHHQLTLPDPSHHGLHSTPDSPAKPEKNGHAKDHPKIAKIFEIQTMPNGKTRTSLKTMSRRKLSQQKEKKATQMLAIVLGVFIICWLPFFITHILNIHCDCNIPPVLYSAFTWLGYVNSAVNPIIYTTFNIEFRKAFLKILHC
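D2 cells co-treated with compound plus 50 nM dopamine (EC20) for 90 min at 37 deg C to detect potentiation. Beta-arrestin recruitment was read as enzyme-fragment luminescence after 1 h at ambient temperature. Full response was set by 57 uM dopamine.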
TRPML1 agonist = human mucolipin-1 channel agonism; actives 0.12% (n = 410,000); AID 624414; activation, % (test concentration not listed); TRPML1-expressing cells, Ca2+ dye fluorescence, FDSS; host cell line not named in the record; reference of the full effect not given here; Q9GZU1; in the data active = activation above about 50%; inconclusive = about 30% to 50%; inactive = below about 30%; also: 0% is about no effect; the text of the record puts the active cut at 80%
Target sequence (Q9GZU1 whole entry, looked up): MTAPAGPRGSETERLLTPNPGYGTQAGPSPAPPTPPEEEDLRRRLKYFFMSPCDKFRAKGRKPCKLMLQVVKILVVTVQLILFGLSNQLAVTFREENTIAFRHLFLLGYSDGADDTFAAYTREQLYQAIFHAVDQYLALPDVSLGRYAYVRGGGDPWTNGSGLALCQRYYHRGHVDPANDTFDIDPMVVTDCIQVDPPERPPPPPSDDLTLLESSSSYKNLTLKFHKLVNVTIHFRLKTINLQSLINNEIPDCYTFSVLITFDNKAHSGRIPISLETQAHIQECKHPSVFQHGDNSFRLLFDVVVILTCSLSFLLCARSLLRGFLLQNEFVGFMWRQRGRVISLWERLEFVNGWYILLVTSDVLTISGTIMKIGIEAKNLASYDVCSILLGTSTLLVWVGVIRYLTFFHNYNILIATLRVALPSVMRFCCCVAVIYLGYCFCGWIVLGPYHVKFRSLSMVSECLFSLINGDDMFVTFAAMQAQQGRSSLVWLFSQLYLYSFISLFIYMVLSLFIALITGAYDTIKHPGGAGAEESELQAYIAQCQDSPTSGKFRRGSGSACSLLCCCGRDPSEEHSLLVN
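Tetracycline-induced TRPML1-DL cells are seeded and incubated overnight before loading with a no-wash Ca2+ dye and quencher. Agonist activity is taken from the 110 s fluorescence read following compound pin-transfer on an FDSS, before EC80 54-4 challenge.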
Six1-Eya2 blk = blocks human Six1 binding to Eya2. activity change, % (test concentration not listed). Q15475+O00167. actives 0.56% (n = 360,000). AID 651725. AlphaScreen GST-Six1/His-Eya2 binding, biochemical; hits give low values; control for the full effect not named in the record; in the data active = activity change below about -65%; inconclusive = about -30% to -65%; inactive = above about -30%; also: % is scaled to controls: 0 for no effect and ±100 for the full control effect; compound concentration not given in the record
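Homogeneous AlphaScreen proximity assay pairing GST-Six1 with His-tagged Eya2 (added as 5X mix: 250 nM and 500 nM) in 50 mM Tris pH 8.0, 300 mM NaCl, 1 mM TCEP. Glutathione donor and nickel acceptor beads; 1 h, 37 °C, dark.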
CtBP-E1A inh = inhibitors of CtBP/E1A interaction | AlphaScreen GST-E1A/His-CtBP binding, 1536-well; hits give low values; control for the full effect not named in the record | activity change, % (no concentration beside the values) | actives 0.49% (n = 340,000) | AID 651724; in the data active means activity change below about -65%; inconclusive means about -30% to -65%; inactive means above about -30%; also: % is scaled to controls: 0 for no effect and ±100 for the full control effect; compound concentration not given in the record
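GST-E1A and His-tagged CtBP (125 nM each as 5X stock) were preincubated with pin-transferred compound for 2 h at 37 °C in the dark, then glutathione donor and nickel acceptor beads were added for 1 h before AlphaScreen reading.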
TRPV1 PAM = enhances activation of the human vanilloid receptor TRPV1. TRPV1-expressing cells, Fluo-8 calcium influx, capsaicin EC20 potentiation; host cell line not named in the record; control for the full effect not named in the record. actives 0.02% (n = 320,000). Q8NER1. AID 540277. potentiation, % at 8.33 µM; active means potentiation above 80%; inconclusive means 30% to 80%; inactive means below 30%; also: 0% is about no effect
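TRPV1-expressing cells were cultured overnight at 35.5C and loaded with Fluo-8 calcium dye for 40 to 90 min at room temperature. After a 10 s baseline, compound was added and calcium influx was read kinetically for 3 min (ex 480/em 520 nm).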
TRPML1 blocker = human mucolipin-1 channel inhibition | Q9GZU1 | TRPML1-inducible cells, Ca2+ dye fluorescence, FDSS; hits give low values; inhibition of EC80 agonist-evoked calcium signal | activity change, negative = inhibition, % (concentration not given with the values) | actives 0.02% (n = 390,000); in the data active means activity change below about -50%; inconclusive means about -30% to -50%; inactive means above about -30%;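 also: stimulus is agonist 54-4 at its EC80 concentration; % is scaled to controls: 0 for no effect and ±100 for the full control effect; compound concentration not given in the record; the text of the record puts the active cut at -80%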
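Tet-induced TRPML1-DL cells loaded with Ca8 no-wash calcium dye were read kinetically on FDSS. Compound addition was followed by EC80 agonist 54-4 (4 uM final); inhibition was read over 110 s.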
* marks the source's active call; other numbers are inactive results; ? = inconclusive; / = no result given; & = joins results of further samples.

Molecule	D2 PAM	TRPML1 agonist	Six1-Eya2 blk	CtBP-E1A inh	TRPV1 PAM	TRPML1 blocker
CCOC(=O)c1cc2cc(OC)ccc2n1C1CCN(C)CC1	/	0.2	1	-4	/	/
COc1ccc(NC(=O)c2c(C)noc2C(C)C)cc1S(=O)(=O)N1CCCCC1	-9	0.6	-8	0	4	4
Cc1cccc2c1NC(=O)C21N2CCCC2C(C(=O)c2ccc3ccccc3c2)C12C(=O)Nc1ccccc12 (stereo not drawn)	1	-0.1	5	-1	-9	-4
O=C(Nc1ccc(F)cc1F)Nc1csc2ccccc12	-16	1.1	1	-3	-12	4
CCOC(=O)C/C(C)=N\Nc1ccc([N+](=O)[O-])cc1[N+](=O)[O-]	4	0.1	?	?	-5	4
CCN=C1SC(CC(=O)Nc2ccc(C)cc2)C(=O)N1CC (stereo not drawn)	-27	-0.2	2	-1	0	4
CCOC(=O)CSc1nc2ccccc2c(=O)n1-c1ccc(C(=O)NCCOC)cc1	-6	0.8&-0.3	0	4	7	5&-3
CC(=O)c1ccc(N2CCN(C(=O)COc3ccccc3F)CC2)c(F)c1	0	2.1	-2	1	-22	24
CCN(CC)C(=O)c1[nH]cnc1C(=O)N[C@@H](C)C(=O)OCc1ccccc1	-4	-0.6	-1	3	-7	-8
Cc1ccc(/C=N/Nc2nnc(Cc3ccccc3)c(=O)[nH]2)o1	0	-0.1	-26	?	0	-5
COc1ccc(CN2CCN(C(=O)c3cccc4ccccc34)CC2)c(OC)c1OC	-14	-0.1	-2	/	3	1
CC(C)N(C(C)C)S(=O)(=O)c1ccc(NC(=O)c2cnccn2)cc1	-4	0.3	0	-2	-17	10
COCCNC(=O)C(c1ccc(F)cc1)N(Cc1ccccc1)C(=O)CCC(=O)Nc1nccs1 (stereo not drawn)	1	-0.4	5	13	4	0
COc1cccc(NC(=O)CN(C)C(=O)c2ccc3c(c2)S(=O)(=O)N=C2CCCCCN23)c1	-34	-0.1	-5	3	-3	-3
CCOC(=O)c1cc(Cl)c2c(ccc3ccccc32)n1	-18	-0.6	1	3	/	-4
CC(CCc1ccccc1)NC(=O)c1ccc(F)cc1 (stereo not drawn)	-9	0.2	-6	3	-9	-1
CN1CCc2c(sc3nc(SCC(=O)N4CCCCC4)n(-c4ccccc4)c(=O)c23)C1	0	1.3	14	0	-1	3
CC(C)(C)C1CCN2CCCC(c3ccccc3)(C1)C2=O (stereo not drawn)	/	-1.4	6	-5	/	/
CCCCCCNC(=O)CC(NS(=O)(=O)c1ccc(OC)cc1)C(C)C (stereo not drawn)	-8	-0.8	2	9	1	41
COc1ccc(-c2ccc(OC)c([C@H]3[C@H]4C=CC[C@@H](C)[C@@H]4C(=O)N3Cc3ccccc3)c2)cc1C	-5	0.1	2	4	-13	29
O=C(Nc1nnc(Cc2ccccc2)s1)c1cccnc1	-1	-1.3	8	-5	17	14
O=C(N/N=C/c1ccc(N2CCOCC2)o1)c1cccc([N+](=O)[O-])c1	15	-0.3	-10	2	-3	5
COCc1nnc(NC(=O)C2CC(=O)N(C3CCCCC3)C2)s1 (stereo not drawn)	2	-0.1	1	11	21	-9
Cc1ccc(NC(=O)CN2C(=O)S/C(=C/c3ccc(O)c([N+](=O)[O-])c3)C2=O)cc1C	-11	1.3	?	-5	3	24
Cn1cc(CC(=O)N2CCN(c3ccccc3F)CC2)c2ccccc21	-6	-0.8	-8	-3	?	3
COc1ccc(/C=C/C(=O)OCC(=O)Nc2ccc(C)cc2)cc1S(=O)(=O)N1CCOCC1	-37	0.3	-10	-2	1	5
CCOc1ccc(NC(=O)CN(C)C(=O)c2cccnc2Sc2ccc(C)cc2C)cc1OCC	-15	2.3	0	-3	/	-3
O=C(NCCOc1ccccc1)C1CCC(=O)N(Cc2ccc(Cl)cc2)C1 (stereo not drawn)	-16	-0.3	11	9	-29	-3
COc1cc(CNn2c(C)n[nH]c2=S)cc(Cl)c1OCc1ccc(F)cc1	1	1.1	-7	7	-5	4
O=C(Nc1ccccc1Cl)c1cc(C2CCCCN2C(=O)c2cccs2)on1 (stereo not drawn)	-14	-0.3	-6	2	/	/
O=C(Nc1cccc(Cl)c1N1CCOCC1)c1cccnc1	-3	0.2	7	7	-14	-2
COc1ccc(-n2nnnc2/C=C/Nc2cc(C(F)(F)F)ccc2OC)cc1	-3	4.8	3	13	-8	8
CC(C)CCSc1cc(NCCO)c([N+](=O)[O-])c2nonc12	-11	-1.2	-9	-2	22	-2
CC12COC3(C(=O)Nc4ccc(Cl)cn4)CC1CCC32C (stereo not drawn)	-6	0.6	9	11	-2	18
CCCN(CC(=O)Nc1ccc(F)c(F)c1F)C(=O)c1ccc2c(=O)n3c(nc2c1)CCC3	-2	-0.7	-1	-14	15	9
Cn1cc(/C=C/C(=O)N2CCCC(C(=O)c3cccc(C(F)(F)F)c3)C2)cn1 (stereo not drawn)	0	-0.1	-2	2	-6	-6
O=C(/C=C/c1ccco1)NC1CCCC1	0	-0.5	-1	-11	-4	-2
COc1ccc(Cl)cc1NS(=O)(=O)c1cccc(C(=O)NCC2(N(C)C)CCCCC2)c1	-35	2.1	2	-3	1	15
CCCn1c(SCC(=O)NCc2ccc(Cl)cc2)n[nH]c1=O	2	0.5	1	0	-2	6
c1ccc(COc2ccc(CNCc3cccs3)cc2)cc1	-13	0.7	39	38	-4	1
COc1ccc(CNC(=O)C2CC(c3ccc(OC)cc3)=NO2)cc1 (stereo not drawn)	-4	-0.5	6	14	11	6
CCCCCn1c(CN2CCN(Cc3ccccc3)CC2)nc2c1c(=O)n(C)c(=O)n2C	-19	0.8	-9	2	-9	-2
COc1cccc(/C=C2\SC(N3CCC(C)CC3)=NC2=O)c1OC	-14	1.6	-2	3	-16	-2
COc1ccc(C(=O)OCC(=O)NC23CC4CC(CC(C4)C2)C3)c(O)c1	-10	0.9	4	-2	/	-8
O=C(N/N=C/c1c[nH]c2ccccc12)c1cccs1	-13	-0.5	0	-13	7	2
COc1cc(OC)cc(C(=O)Nc2ccc(C(=O)NCC3CCCO3)cc2)c1 (stereo not drawn)	-3	0.3	-23	-3	-9	19
Cc1ccc([C@H]2C[C@@H](n3cc(-c4ccc(F)cc4)nn3)[C@H](O)CN2Cc2cccs2)cc1	0	-0.1	-1	-8	/	3
O=C(Nc1ccccn1)C1CCN(S(=O)(=O)c2ccc3c(c2)OCCCO3)CC1	-11	0.9	5	-3	2	20
COc1ccc(S(=O)(=O)NCc2ccc(C(=O)N(C)Cc3ccco3)cc2)cc1	-1	-0.7	-4	9	2	2
COc1ccc(C(=O)c2ccc(C)cc2)c(OC)c1OC	-4	-0.4	4	6	/	-3
Oc1ccc(Nc2nc(-c3ccccc3)nc3ccccc23)cc1	-5	-0.2	-16	-8	-13	8
O=C(Nc1ncc(S(=O)(=O)c2ccc([N+](=O)[O-])cc2)s1)c1cccnc1	22	1.4	4	3	20	-5
COc1ccc(-c2csc(CCn3nc(C)cc3C)n2)cc1	-5	0.8	-3	/	-2	2
c1cncc(-c2nn[nH]n2)c1	-1	2.9	5	5	1	9
O=C(O)CP(=O)(O)O	-6	0.4&-0.2	7	0	2	-1
CCN(CC)c1nc(C(N)=O)cc(-c2ccccc2)n1	-12	1.2	18	9	-23	11
Cc1cc(C(=O)N(C)CC(=O)Nc2cccc(F)c2)no1	-10	-0.3	8	7	4	7
COc1ccc(NC2=CC(=O)CC(c3ccc(C)cc3)C2)c(OC)c1 (stereo not drawn)	-18	5.2	-3	-3	/	21
COc1ccc(-n2c(Cc3cccn3C)nnc2SCC(=O)N2CCOCC2)cc1	-2	4.0	1	-1	-2	16
O=C(NCC1(N2CCCCC2)CCCCC1)c1ccc(S(=O)(=O)N2CCCC2)cc1	-7	1.1	2	-24	-20	19

(list continues)
Molecule	D2 PAM	TRPML1 agonist	Six1-Eya2 blk	CtBP-E1A inh	TRPV1 PAM	TRPML1 blocker
CCCCOC(=O)Nc1ccc(N2CCCCC2)cc1	-23	0.9	?	-25	/	-2
COCCNc1nc(-c2ccc(Cl)cc2C)c2sccc2n1	-13	-0.1	31	-2	/	/
Cc1cc(C(=O)Nc2ccccc2C(=O)O)ccc1NC(=O)COc1cccc([N+](=O)[O-])c1	0	0.6	-14	-2	-1	7
O=C(NCc1cccs1)NC1CCCCC1	-14	1.0	8	3	11	0
O=[N+]([O-])c1ccc(-c2cccnc2)cc1	-3	-1.1	0	-3	/	-1
C=CCN(CC=C)C(=S)Nc1cc(Cl)ccc1OC	-19	-0.2	1	-5	-2	-1
CCOc1ccc2nc(Cl)sc2c1	-6	-0.4	-4	-12	13	-17
O=C(CN1C(=O)C2C3CCC(C3)C2C1=O)Oc1ccc2ccccc2c1 (stereo not drawn)	-11	0.5	4	7	-1	7
CC(C)n1c(SCC(=O)NCc2ccco2)nc2c1c(=O)n(C)c(=O)n2C	-5	0.2	-2	-9	2	-4
OC(COc1ccc2ccccc2c1Br)Cn1ccnc1 (stereo not drawn)	-1	-0.5	-1	-2	3	44
COc1ccc(C(NC(=O)N2CC(C)OC(C)C2)C(Cl)(Cl)Cl)cc1F (stereo not drawn)	-4	-0.2	3	-2	-11	-16
O=C1NC[C@@H](Cc2ccc(O)cc2)N(CCc2cccc(F)c2)C1=O	-5	-0.5	0	7	-9	-8
O=C(Nc1nc(-c2ccccc2)cs1)c1cccc([N+](=O)[O-])c1	-14	-0.4	-25	-26	-6	-4
COC(=O)C(=N/Nc1ccccc1C(=O)OC)/C(C)=N/O	?	1.5	-1	3	-2	-7
CCOc1ccc(/C(O)=C2/C(=O)C(=O)N(CCOCCO)C2c2cccnc2)cc1 (stereo not drawn)	-19	-0.7	2	-1	-3	-4
Cc1cc(OC(=O)c2ccc3ccccc3c2)c([N+](=O)[O-])c(=O)[nH]1	-6	-0.7	9	3	?	-11
O=c1[nH]n2c(-c3ccccc3)nc(O)c2c2ccccc12	-3	2.2	-3	-5	-4	-6

Random excerpt: four compounds from above, in no set order.
Molecule	D2 PAM	TRPML1 agonist	Six1-Eya2 blk	CtBP-E1A inh	TRPV1 PAM	TRPML1 blocker
O=C(NCc1cccs1)NC1CCCCC1	-14	1.0	8	3	11	0
O=C(Nc1nnc(Cc2ccccc2)s1)c1cccnc1	-1	-1.3	8	-5	17	14
COc1ccc(NC2=CC(=O)CC(c3ccc(C)cc3)C2)c(OC)c1 (stereo not drawn)	-18	5.2	-3	-3	/	21
CCN(CC)C(=O)c1[nH]cnc1C(=O)N[C@@H](C)C(=O)OCc1ccccc1	-4	-0.6	-1	3	-7	-8
